Assay outcomes deposited in PubChem by several laboratories.
RanGTP-Imp inh – disruptors of Ran-importin-beta complex formation – biochemical, FRET, CFP-Ran, YFP-importin-beta, homogeneous, primary screen; cell-free CFP-Ran/YFP-importin-beta FRET ratio; inhibition, % (no concentration beside the values); 1.1% of 300,000 active;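 active means most replicates above 15%; inconclusive means exactly half above 15%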;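 further: 0% = DMSO wells and 100% = Ran loaded with GDP instead of GTP; wells of about 40 µL received 100 nL stock; the first replicate is given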
Calb FLC – affects C. albicans growth with fluconazole; AID 1979; C. albicans CaCi-2 (fluconazole-resistant clinical isolate) + fluconazole, Alamar Blue growth, 48 h; 0.57% of 300,000 active; growth inhibition, % (concentration not given with the values);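 active means most replicates above 75%; inconclusive means exactly half above 75%; inactive means most below 75%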;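 further: all wells also contain fluconazole at 8 µg/ml as a sub-toxic cotreatment; 0% = median of DMSO wells and 100% = median of geldanamycin control wells; wells of about 8 µL received 7.5 nL stock; the first replicate is given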
LANA-H2B inh – blocks KSHV LANA binding to histone H2A/H2B; Q9QR71; cell-free LANA-H2A/H2B peptide, fluorescence polarization; inhibition, % (test concentration not listed); 0.6% of 320,000 active; AID 2629; in the data active means inhibition mostly above about 10%, no sharp cut-off; inactive means mostly below about 6.7%;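 further: stock transfer was 7.5 nL into about 10 µL; 0% = median of vehicle wells and 100% = median of positive control wells; one replicate is shown; the record names a cut of 25% in any replicate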
T cruzi repl – T. cruzi replication inhibition. 1.4% of 300,000 active. inhibition, % (test concentration not listed). T. cruzi beta-gal in NIH3T3, luminescence, 90 h;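 active means mean inhibition across valid replicates above about 55%, limit read from the data; inconclusive means mean below that limit but half or more replicates reach it; inactive means mean below it, under half of replicates reach it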;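 further: signal also drops with host cell toxicity which is not excluded here; 0% = plate median of DMSO wells and 100% = zero luminescence signal; higher percent means less beta-gal luminescence so fewer parasites; stock transfer was 50 nL into about 50 µL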
Bfl-1 A1 inh – inhibitors of the anti-apoptotic protein A1, read as caspase activation | MEF A1-2A-BIM cells, Caspase-Glo 3/7 luminescence, 3 h; percent of clofoctol response, vehicle zero | caspase activation, % (test concentration not listed) | 0.066% of 330,000 active | AID 2462;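 active means over half of replicate activation scores above 10%, or exactly half above 10 with the replicate mean above 10; inconclusive means replicate mean below 10 yet half the replicates above 10; inactive means over half of replicates below 10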;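 further: wells of about 30 µL received 50 nL stock; many hits fall short of the cut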
Vif TR-FRET – inhibitors of Vif binding to APOBEC3G peptide, primary screen, biochemical, TR-FRET, GST-Vif 1-94, biotin-A3G peptide, dose response retest (AID 1117319). TR-FRET GST-Vif / biotin-A3G peptide binding; higher % means a stronger effect; test concentration not given here; strong numbers were not always called active. inhibition, %; hits with a dose series show IC50 in µM. 0.57% of 260,000 active;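 active means above the screen mean plus three standard deviations and confirmed in dose response; inconclusive means results disagree or hit not tested in dose response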;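 further: Vif residues 1-94 fused to GST binding biotinylated APOBEC3G peptide 110-148; 0% = full assay without inhibitor and 100% = GST in place of GST-Vif; retest series ran down from 100 µM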
Beta cell apopt – blocks beta cell apoptosis | INS-1E cytokine-induced death, ATP luminescence, 48 h; percent of positive-control rescue, neutral wells zero | protection from apoptosis, % (test concentration not listed) | 0.8% of 300,000 active;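 active means all replicates at 75% or more, or half of them and the mean; inconclusive means half reach 75% but not the mean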;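 further: 0% = cytokine-treated negative control wells and 100% = positive control rescue; higher means more ATP so stronger rescue from cytokine killing; wells of about 40 µL received 100 nL stock; the first replicate is given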
MLL AF4-AF9 inh – MLL-AF4/AF9 protein interaction inhibition. inhibition, % at 10 µM. P42568. AID 651704. AlphaScreen, biotin-AF4 peptide binding to FLAG-AF9. 0.47% of 350,000 active;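 active means every replicate reaching a set inhibition limit, whatever the replicate mean, cut at about 25% in these data; inconclusive means mean inhibition reaches that limit but some replicates miss it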;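 further: 0% = plate neutral control median and 100% = total signal loss; the record names both 10 and 1 µM as test concentration; the first replicate is given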
Target sequence (P42568 whole entry, looked up): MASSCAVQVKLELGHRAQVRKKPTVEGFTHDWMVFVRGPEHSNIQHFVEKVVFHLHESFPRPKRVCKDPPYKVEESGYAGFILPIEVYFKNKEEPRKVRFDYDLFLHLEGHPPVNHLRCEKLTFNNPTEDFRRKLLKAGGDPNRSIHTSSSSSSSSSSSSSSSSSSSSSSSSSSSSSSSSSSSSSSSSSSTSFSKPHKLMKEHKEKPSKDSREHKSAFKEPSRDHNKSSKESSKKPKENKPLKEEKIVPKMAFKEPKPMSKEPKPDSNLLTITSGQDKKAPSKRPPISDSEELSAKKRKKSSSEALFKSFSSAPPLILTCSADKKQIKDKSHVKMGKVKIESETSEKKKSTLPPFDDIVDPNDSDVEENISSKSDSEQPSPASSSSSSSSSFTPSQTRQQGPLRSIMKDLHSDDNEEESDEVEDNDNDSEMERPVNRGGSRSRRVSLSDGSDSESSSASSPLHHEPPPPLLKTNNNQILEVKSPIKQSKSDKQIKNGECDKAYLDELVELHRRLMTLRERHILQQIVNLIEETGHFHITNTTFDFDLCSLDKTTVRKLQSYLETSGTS
Starred values were filed as active, the others as inactive; ? = inconclusive; nt = no result given; & = joins results of further samples. An unsorted share of the library; any-hit rate near 4.3%.

SMILES	RanGTP-Imp inh	Calb FLC	LANA-H2B inh	T cruzi repl	Bfl-1 A1 inh	Vif TR-FRET	Beta cell apopt	MLL AF4-AF9 inh
CS/C(=C\[N+](=O)[O-])Nc1ccc(OC(F)(F)F)cc1	-3.7	-5	8.6	-4	-0.3	4%	-1	-5.1
COCCOC(=O)C1=C(C)Nc2nc(C)nn2C1c1ccccc1 (stereo not given)	10	4	2.0	3	-0.5	5%	-3	nt
Cc1ccccc1OCCOc1ccc([N+](=O)[O-])cc1/C=N/n1cnnc1	2.4	0	3.6	-15	2.7	?	7	-1.6
C=CC1C(N2CCOCC2)C(C)(C)S1(=O)=O (stereo not given)	2.6	-4	-3.7	2	-0.4	4%	3	nt
CC(=O)[C@H]1[C@@H]2C(=O)N(c3cccc(Cl)c3)C(=O)[C@@H]2[C@H]2c3ccccc3C=CN21	nt	10	-0.2	nt	-0.2	-13%&10%	-4	nt
CC(C(=O)O)C1SC(=O)NC1=O (stereo not given)	2.8	-6	-4.2	3	1.4	-8%	-1	nt
Cc1ccc(OCCNC(=O)c2cncc(Br)c2)cc1C	-3.1	1	-1.6	-8	0.1	-9%	-12	nt
O=C1c2ccccc2C(O)N1c1ccc(Cl)cc1 (stereo not given)	-1.7	-2	2.4	-24	-2.9	0%	-2	-1.7
COc1ccc(CC(=O)N2CCN(c3cccc(Cl)c3)CC2)cc1OC	1.3	9	-4.9	-3	1.8	1%	nt	-5.7
O=C(Cc1ccccc1C(=O)O)Nc1cccc2ccccc12	21*	11	-4.9	-4	-0.9	nt	-4	4.7
O[C@@H](CNC[C@H](O)c1ccccc1)c1ccccc1	-1.1	-12	2.2	-7	0.2	17%	0	3.3
Cc1nn(-c2ccccc2)c(C)c1/C=N/NC(=O)c1cc(C2CC2)[nH]n1	2.5	4	1.2	3	0.2	3%	3	nt
N#CC1=C(N)N(c2ccc(Br)cc2)C2=C(C(=O)CCC2)C1c1cccnc1 (stereo not given)	0.1	?	1.9	6	1.5	?	-6	nt
CN(Cc1ccccc1)C(NC(=O)c1ccccc1)C(Cl)(Cl)Cl (stereo not given)	1.1	-11	8.8	-25	0.3	2%	-11	nt
O=C(Nc1ccccc1)c1nn(-c2cccc(C(F)(F)F)c2)ccc1=O	-1.8	30	2.1	9	0.6	-5%	-7	-0.4
O=C(Cn1c(COc2ccccc2)nc2ccccc21)Nc1cc(Cl)ccc1Cl	-1.4	-5	-1.8	-12	0.2	7%	12	-0.5
CC1=NN(c2ccccc2)C(=O)C1N=Nc1ccccc1 (stereo not given)	0.3	-10	-4.1	9	0.0	nt	-2	2.0
CCCC1(C(=O)OC)NC(c2cc(OC)c(OC)c(OC)c2)C2C(=O)N(CC)C(=O)C21 (stereo not given)	nt	nt	-1.6	nt	-0.1	32%	-2	nt
CC(Sc1nncn1C)C(=O)NCc1ccc2c(c1)OCO2 (stereo not given)	0.0	9	5.1	-22	0.2	nt	4	-3.4
C=CCC1(CC=C)CCCN1C(=O)c1cc(COc2cccc(OC)c2)on1	0.4	-24	-1.1	15	0.7	-2%	5	-8.0
C=CCNC(=O)c1cc(-c2cccnc2)nc2ccccc12	-3.0	-1	9.2	-3	-0.5	-9%	2	-4.3
O=C(CC1OC(=O)c2ccccc21)NNC(=O)c1ccc(F)cc1 (stereo not given)	nt	nt	1.8	nt	1.6	-10%	0	-2.7
O=C(NCc1ccc(F)cc1)c1ccc(Cl)c(NC2=NC3CS(=O)(=O)CC3S2)c1 (stereo not given)	0.5	2	-7.5	12	nt	nt	-1	6.1
O=[N+]([O-])c1ccc(/C=N/Nc2nc(N3CCOCC3)nc(N3CCOCC3)n2)cc1	5.0	-3	-4.7	-8	0.2	6%	-2	nt
O=C1NCCCc2c1no[n+]2[O-]	-2.0	28	-1.1	0	-0.5	-7%	-2	nt
COc1ccc(N(CC(=O)N/N=C(\C)c2ccc(C)cc2)S(=O)(=O)c2ccccc2)cc1	0.8	-1	-0.5	-7	-0.5	-8%	-6	0.0
C/C(NCc1cccnc1)=C(\C#N)C(=O)NCc1ccccc1	?	-1	3.4	-11	0.4	-2%	2	nt
Cc1cccc(C(=O)NC(=S)Nc2ccccc2C(F)(F)F)c1	3.0	21	-0.1	0	0.2	-11%	5	nt
CCCC(=O)Nc1ccc(S(=O)(=O)Nc2cc(OC)ncn2)cc1	1.0	12	nt	13	nt	nt	nt	-15
Cc1nnc(NC(=O)c2cccc(S(=O)(=O)N3CC(c4ccccc4)CC3=O)c2)s1 (stereo not given)	3.5	28	6.0	3	0.6	1%	0	-3.9
CC(C)(C)NC(=O)c1ccccc1-c1nc2ccccc2s1	?	-7	-3.1	17	-0.2	-2%	-2	11
CCc1ccccc1NC(=O)C(C)n1nc([N+](=O)[O-])c(Br)c1C (stereo not given)	11	-19	-1.6	9	0.4	-3%	3	-0.5
Cc1ccc(C)c(OCC(O)CNC2CCCC2)c1 (stereo not given)	-2.2	-16	0.3	11	1.1	nt	nt	1.5
COc1ccc(OC)c(-n2c(=S)[nH]c3cc(C(=O)N4CCC(C(N)=O)CC4)ccc3c2=O)c1	1.4	-4	2.8	-3	0.4	9%	-3	nt
CC(=O)Nc1ccc(NC(=O)CSc2ncnc3sc(C)c(C)c23)cc1	1.8	12	3.5	12	0.3	nt	5	0.5
Cc1cccnc1NC(=O)CNC(=O)c1cccs1	-1.2	-1	3.7	-14	0.9	3%	-5	-1.9
Cc1nc([N+](=O)[O-])c(Sc2nc3ccccc3[nH]2)n1Cc1ccccc1	6.2	1	0.2	29	0.6	nt	0	-0.2
O=S(=O)(NCCC1=CCCCC1)c1c(Cl)cccc1Cl	-0.5	5	-1.1	3	-0.8	-1%	1	-3.6
CCCCn1c(N)c(N(CC)C(=O)c2ccc(Cl)c([N+](=O)[O-])c2)c(=O)[nH]c1=O	2.2	13	-1.1	-20	-0.1	nt	-6	2.7
Cc1nn(-c2ccccc2)cc1/C=N/NC(N)=S	0.3	7	-3.5	2	-1.0	0%	-5	-0.4
CC(=O)Nc1ccccc1C(=O)C(=O)Nc1ccc(C)c(F)c1	3.1	-28	0.4	-3	-0.1	-2%	3	0.5
Cc1ccc(NC(=O)CCCN2C(=O)c3cccc4cccc(c34)C2=O)cc1	0.1	-8	3.5	4	-0.2	-1%	0	2.4
O=C(CO/N=C/c1ccc(OC(F)F)cc1)NC1CCCC1	0.2	-5	5.3	-16	1.2	-1%	6	-2.4
COC(=O)CSc1cnc2ccccc2n1	3.7	2	6.9	-7	0.4	-2%	-2	nt
COc1ccc(CNC(=O)CN2C(=O)CCSc3ccc(S(=O)(=O)N4CCCC4)cc32)cc1	2.6	2	-2.1	15	-1.7	nt	-7	1.7
O=C1C2C3C=CC(C3)C2C(=O)N1CN(Cc1ccccc1)CN1C(=O)C2C3C=CC(C3)C2C1=O (stereo not given)	2.2	-14	2.7	0	0.2	-6%	3	nt
CC(C)CC(=O)Nc1ccc(N2CCOCC2)cc1	3.9	-3	1.0	-3	0.0	0%	-10	nt
CC1=CC=CN2CC(O)CN=C12 (stereo not given)	0.8	7	2.1	-12	0.0	6%	-5	nt
CC(OC(=O)c1ccccc1Oc1ccccc1)C(=O)NC1CC1 (stereo not given)	7.2	2	0.4	-4	0.2	2%	-7	-1.1
C=CCc1cc(C=O)cc(OCC)c1O	-1.7	30	3.0	-1	-0.4	nt	-1	-2.8
c1ccc(-c2nc(-n3nc4ccccc4n3)nc3ccccc23)cc1	3.3	14	2.5	29	1.2	-11%	-3	nt
NC(=O)c1cc(C(=O)c2ccccc2Cl)c[nH]1	1.5	-11	3.1	-21	0.4	-5%	-5	-2.6
COc1ccc(-c2cc(C(=O)OCC(=O)N3CCCC3)c3ccccc3n2)cc1	3.4	-2	3.4	-8	-0.1	2%	1	nt
Cc1ccc(-c2nc(NC(=O)c3nn(C)cc3[N+](=O)[O-])sc2C)cc1	-0.5	41	0.4	26	11*	2%	116*	1.5
Cc1ccccc1/C=C1\Sc2ccc(C(=O)N3CCN(c4ccccn4)CC3)cc2N(C)C1=O	8.8	3	-8.3	11	2.7	nt	7	nt
COc1ccc(S(=O)(=O)Nc2noc3ccccc23)cc1	-3.5	8	3.2	0	-0.4	-2%	-4	-3.4
O=C(c1cc2ccccc2oc1=O)N(Cc1ccco1)Cc1cccs1	?	4	-10	-4	0.7	6%	0	nt
CC(C)Cc1nnc(NC(=O)c2ccc([N+](=O)[O-])cc2)s1	3.5	0	5.0	-4	-0.1	5%	7	nt
COc1ccc(S(=O)(=O)N2CCNCC2)cc1OC	-0.3	0	3.6	1	-0.4	-8%	?	-0.2
COc1cc(OC)cc(C(=O)NCC(=O)OCC(=O)NCc2ccco2)c1	nt	nt	2.8	nt	-1.1	5%	2	-0.9

More compounds:
SMILES	RanGTP-Imp inh	Calb FLC	LANA-H2B inh	T cruzi repl	Bfl-1 A1 inh	Vif TR-FRET	Beta cell apopt	MLL AF4-AF9 inh
Cc1cccc(OC(C)C(=O)NCc2ccc(S(N)(=O)=O)cc2)c1 (stereo not given)	0.1	6	3.7	-5	-0.2	-1%	-5	-64
O=C(NCc1ccccn1)C(=O)Nc1nc(C23CC4CC(CC(C4)C2)C3)cs1	-4.0	-10	1.0	-8	-0.3	5%	39	nt
O=C(Nc1ccc(N2CCOCC2)c(Cl)c1)c1ccc(S(=O)(=O)N2CCOCC2)cc1	-2.2	4	0.8	12	0.4	nt	-1	5.7
COc1cccc(/C=N/NC(=O)CCNc2n[nH]c(=O)[nH]c2=O)c1OC	1.1	-2	-1.1	-6	0.3	6%	5	-8.6
CCCCCCCC(=O)NNC(=O)CCC(=O)O	0.4	20	6.5	-1	-0.3	8%	-1	nt
COc1ccc(NC(=O)CCC(=O)N2CCN(S(=O)(=O)c3ccc(C)cc3)CC2)c(OC)c1	2.4	3	-0.5	49	0.1	-6%	4	9.0
CC(C)CCNc1nc(N2CCCC2)c2c(c1C#N)CCN(C)C2	?	3	4.5	58*	-0.6	9%	nt	nt
C[C@H](CO)N1C[C@H](C)[C@@H](CN(C)C(=O)Nc2ccccc2)Oc2ccc(NC(=O)C3CCCCC3)cc2C1=O	nt	nt	3.7	nt	0.0	nt	-4	-12&-4.2
CC(NC(=O)c1ccccc1F)c1nnc(SCC(=O)Nc2nccs2)n1C (stereo not given)	0.8	1	-11	-2	0.3	nt	-5	-0.6
CCNC(=S)N1CCc2ccccc2C1	-1.9	-14	1.7	-16	1.6	-12%	-9	-1.6
COc1cc(C(=O)OCC(=O)c2cc(C)n(CC3CCCO3)c2C)cc(OC)c1C (stereo not given)	nt	nt	2.3	nt	0.9	7%	-10	5.0
CS(=O)(=O)N(CC(=O)N1CCCC1)c1ccc(Cl)c(Cl)c1	-5.5	-22	2.0	-8	-0.1	17%	-4	-8.9
CCOC(=O)Cn1c(=O)oc2cc(S(=O)(=O)Nc3cccc(C)c3)ccc21	1.9	-1	-0.7	0	0.0	1%	-3	-4.1
CCOc1c(Br)cc(Br)cc1/C=C1\SC(N)=NC1=O	-2.1	-3	0.7	-5	1.1	nt	0	-0.3
CCOc1ccc(N=C(NN)c2ccc3ccccc3n2)cc1	-3.9	-2	-1.0	28	-0.4	-2%	10	nt
